High-throughput results deposited in PubChem by National Center for Advancing Translational Sciences (NCATS).
nsP2pro primary: inhibitors of chikungunya virus nsP2 protease; Q8JUX6; FRET peptide cleavage, nsP2pro, fluorescence 1 h; Potency, µM (highest dose often 24.9 µM), inactives show at the top dose activity change, negative = inhibition, hits mostly inhibitors; 1.1% of 31,000 active; AID 1964107; active means well fitted inhibition curve with a large enough effect; inconclusive means small, poorly fitted or top-dose-only effect; inactive means no such curve, though single readings can be large or run the other way; note: nearly all actives have a fitted effect of over 60% in size; a reference inhibitor and vehicle were the controls
The depositor's hits bear a star; i = inactive; ? = inconclusive; & = joins results of further samples; [ ] = another dose, or the depositor's remark. % is set by controls: 0 for no effect and ±100 for the full control effect; potency is the fitted concentration of half-maximal effect.

SMILES | nsP2pro primary
CN(Cc1ccco1)c1ncnc2ccc(-c3ccc4c(c3)OCCO4)cc12 | 0.3%
CCOc1ccc(CNC(=O)C2CCCN(c3nn4cc(-c5ccc(F)cc5)nc4s3)C2)cc1 (stereo not drawn) | -22.3%
COc1cccc(NC(=O)Cn2cc(C(=O)c3ccco3)c3ccccc32)c1 | 2.4%
N#Cc1nc(Nc2ccc(F)cc2)nc(NC2CCCC2)n1 | 1.6%
O=c1n(CC2CC2)c2cccnc2n1[C@H]1CCCN(S(=O)(=O)c2cccnc2)C1 | -6.8%
O=C(OCC#CCSc1nnc(-c2cccc3ccccc23)o1)C1CC1 | 0.9%
Cc1cc(C)nc(NC(=S)N2CCN(c3ccc(Cl)c(C(F)(F)F)c3)CC2)c1 | 0.9%
O=C(NCCc1csc(-c2cccc(F)c2)n1)c1cccs1 | -10.5%
CNC(=O)N1CCC(C2CCN(Cc3ccc(Br)o3)C2)CC1 (stereo not drawn) | i
COc1ccc(OCCCn2c(=O)oc3ccc(C)cc32)cc1 | -12.6%
CCc1ccc(-n2c(=O)c3c4c(sc3n(Cc3ccccc3C#N)c2=O)CCC4)cc1 | -23.3%
CC1(C)CC[C@]2(C(=O)O[C@@H]3O[C@H](CO)[C@@H](O)[C@H](O)[C@H]3O)CC[C@]3(C)C(=CCC4[C@@]5(C)C[C@@H](O)[C@H](O)[C@@](C)(CO)C5CC[C@]43C)C2C1 (stereo partly drawn) | 39.7%[activator][10 µM]
O=C(CNC(=O)C1CCCCC1)OC(C(=O)Nc1cc(C(F)(F)F)ccc1Cl)c1ccccc1 (stereo not drawn) | -6.8%
COc1ccc(NC(=O)N2CCN(c3cc(-c4noc(C)n4)ccc3C)CC2)c(OC)c1 | -12.0%
O=C(NC[C@H]1O[C@@H](CO)[C@@H](O)[C@H]1N1CCOCC1)c1cccs1 | 1.9%[39.2 µM]
O=C(Cn1cc(C(=O)c2ccco2)c2ccccc21)Nc1ccccc1Cl | -15.4%
COc1ccc(CNC(=O)c2ccc3c(c2)NC(=O)C(CS(=O)(=O)Cc2ccccc2Cl)N3)cc1 (stereo not drawn) | -14.0%
Cc1ccc(-c2nc3cccc(C)n3c2Nc2ccc3c(c2)OCO3)o1 | 25.6%
CCCS(=O)(=O)c1nc(NC2CC2)cc(-c2ccc3c(ccn3C3CC(C)(C)NC(C)(C)C3)c2)n1 | 16.9%[10 µM]
COc1ccc(C(O[C@@H]2O[C@H](CO)[C@@H](O)[C@H](O)[C@H]2O)C(CO)Oc2ccc(/C=C/CO)cc2OC)cc1O (stereo partly drawn) | 53.1%[activator][10 µM]
Cc1nn(C(=O)CCCC(=O)N2CCC(CCOc3ccc(F)cc3)C2)c2ccccc12 (stereo not drawn) | i
CC(=O)Nc1sc2c(c1-c1nc3ccccc3s1)CCN(C(C)C)C2 | i
CCOc1ccc(-c2cc(C(=O)NCCc3ccccc3)c3c(-c4ccc(C)cc4)[nH]nc3n2)cc1 | -33.3%
O=C1c2c(O[C@@H]3O[C@H](CO)[C@@H](O)[C@H](O)[C@H]3O)cc(O)cc2OC1(O)Cc1ccc(O)cc1 (stereo partly drawn) | 7.6%[10 µM]
Cc1ccccc1NS(=O)(=O)c1nnc(NC(=O)c2ccco2)s1 | 2.7%

Among those listed so far, four contain a Cl atom:
SMILES | nsP2pro primary
Cc1cc(C)nc(NC(=S)N2CCN(c3ccc(Cl)c(C(F)(F)F)c3)CC2)c1 | 0.9%
O=C(CNC(=O)C1CCCCC1)OC(C(=O)Nc1cc(C(F)(F)F)ccc1Cl)c1ccccc1 (stereo not drawn) | -6.8%
O=C(Cn1cc(C(=O)c2ccco2)c2ccccc21)Nc1ccccc1Cl | -15.4%
COc1ccc(CNC(=O)c2ccc3c(c2)NC(=O)C(CS(=O)(=O)Cc2ccccc2Cl)N3)cc1 (stereo not drawn) | -14.0%

Sorted by molecular weight (rising): three of the compounds above
SMILES | nsP2pro primary
O=C(NC[C@H]1O[C@@H](CO)[C@@H](O)[C@H]1N1CCOCC1)c1cccs1 | 1.9%[39.2 µM]
COc1ccc(NC(=O)N2CCN(c3cc(-c4noc(C)n4)ccc3C)CC2)c(OC)c1 | -12.0%
O=C(CNC(=O)C1CCCCC1)OC(C(=O)Nc1cc(C(F)(F)F)ccc1Cl)c1ccccc1 (stereo not drawn) | -6.8%

Gathered by group: the compounds so far with a CF3 group
SMILES | nsP2pro primary
Cc1cc(C)nc(NC(=S)N2CCN(c3ccc(Cl)c(C(F)(F)F)c3)CC2)c1 | 0.9%
O=C(CNC(=O)C1CCCCC1)OC(C(=O)Nc1cc(C(F)(F)F)ccc1Cl)c1ccccc1 (stereo not drawn) | -6.8%

Additional compounds follow:
SMILES | nsP2pro primary
C[C@@H]1CCN(C(=O)CC#N)C[C@@H]1N(C)c1ncnc2[nH]ccc12 | -9.2%&2.3%&-7.7%
O=S(=O)(c1ccc2nc(N3CCN(c4ccccc4F)CC3)ccc2c1)N1CCCCC1 | ?
C=C(C)C(=O)OC1CC(CO)CCC/C(CO)=C/C2OC(=O)C(=C)C21 (stereo not drawn) | -19.7%
O=C(CCc1nnn2c1CN(S(=O)(=O)c1ccccc1)CC2)NCc1ccccc1 | i
Cc1ccc(C)c(S(=O)(=O)N2[C@@H]3CC[C@H]2CC(NC(=O)c2ccc(F)cc2)C3)c1 (stereo partly drawn) | -4.0%
CC1CCN(c2nc3ccc(C(=O)NC(C)C)cc3s2)CC1 | -20.4%
COc1ccc(OC)c(CNC(=O)c2cccc3c2CCN3C(=O)c2ccc(F)cc2)c1 | i
Cc1ccccc1S(=O)(=O)N1CCN(S(=O)(=O)c2ccc3c(c2)OCCO3)CC1 | 0.9%
O=C(COc1ccc(F)cc1)NC1CC(=O)N(c2ccc3c(c2)OCCO3)C1 (stereo not drawn) | -15.2%
COc1ccc(NC(=O)CSCc2cc(=O)c3cc(Cl)ccc3[nH]2)cc1 | -18.5%
O=C1NC(=O)C(c2cnc3ccccn23)=C1c1cn2c3c(cccc13)CN(C(=O)N1CCOCC1)CC2 | ?
Cn1cccc1CN1CCC2(CC1)COc1ccccc1[S+](=O)([O-])N2 | ?
Cc1cccc(N2C(=O)C(CC(=O)Nc3ccccc3)N(C3CCCCC3)C2=O)c1 (stereo not drawn) | -18.7%
c1ccc(OCCCn2cc(-c3cncnc3)nn2)cc1 | -36.2%
CCOC(=O)CCC(=O)Nc1ncnc2c1C(c1ccccc1)c1c(ccc3ccccc13)O2 (stereo not drawn) | -4.0%
C=CC(C)(O)CC/C=C(/C)COC(=O)C(C)C1CCC(C)(C=C)O1 (stereo not drawn) | 9.8%
CCOC(=O)c1ccc(NC(=O)CSc2ccc(-c3ccccn3)nn2)cc1 | 3.0%
CC(=O)N1CCCc2cc(S(=O)(=O)N3CCN(c4ccccc4F)CC3)ccc21 | -14.7%
CCOc1ccc(C(=O)Nc2ccc(-c3nc4ccccc4o3)cc2)cc1[N+](=O)[O-] | 1.9%
O=S(=O)(NCC(c1ccco1)N1CCN(c2ccc(F)cc2)CC1)c1cc(F)ccc1F (stereo not drawn) | -12.0%
C=C1CO[C@@]2(O[C@H]3CC4C5CC=C6C[C@@H](O)C[C@@H](O[C@@H]7OC[C@H](O)[C@H](O[C@@H]8OC[C@@H](O)[C@H](O)[C@H]8O)[C@H]7O[C@@H]7O[C@@H](C)[C@H](OC(C)=O)[C@@H](OC(C)=O)[C@H]7OC(C)=O)[C@]6(C)C5CC[C@]4(C)[C@@H]3[C@@H]2C)[C@@H](O)[C@H]1OC1OC(C)C(O)C(O)C1O (stereo partly drawn) | -8.2%[5.1 µM]
Cc1nc2ccn(Cc3ccccc3)c(=O)c2cc1C(=O)N1CCN(c2ccc(F)cc2)CC1 | -3.7%
O=C(Nc1cc(Cl)cc(Cl)c1)c1ccc(F)c(S(=O)(=O)N2CCc3ccccc32)c1 | -24.5%
CC(=O)N[C@@H]1CCNC[C@@H]1c1nc(-c2ccccc2)no1 | -7.2%
COCCNC(=O)CSc1nc2cc3c(cc2c(=O)n1CCCCCC(=O)NCc1ccc(OC)cc1)OCO3 | -4.3%

Remaining list, next part
SMILES | nsP2pro primary
COCCN1C(=O)CS(=O)(=O)C12CCNCC2 | 0.8%
CCN1C(=O)C=CC1=O | ?
COC[C@H]1C[C@@H](NC(=O)c2c(-c3ccccc3)noc2C)[C@H](O)[C@@H]1O | i
COc1ccccc1C(=O)NCC(c1cccnc1)N1CCc2ccccc2C1 (stereo not drawn) | -16.6%
COc1ccccc1N1CCN(C(=O)c2nn(-c3ccc(C)cc3)c(=O)n(C)c2=O)CC1 | -11.4%
OC(c1ccccc1)(c1ccccc1)c1cnc2ccccn12 | -5.0%
CC(C)N1C[C@H](O)C[C@H]1c1nnc2n1CCN(C(=O)CCc1c[nH]c3ccccc13)CC2 | i
CCn1cc(C(=O)NCCc2ccccc2)c(=O)c2cc(S(=O)(=O)N3CCOCC3)ccc21 | -9.4%
O=C(c1ccccn1)N1CCC2(CNc3ccccc3[S+](=O)([O-])N2)C1 (stereo not drawn) | -38.6%
COc1ccccc1C1=Nn2c(COc3ccccc3)nnc2SC1 | -3.9%
CC(Oc1ccc2ccccc2c1)C(=O)N(C)Cc1ccc2nsnc2c1 (stereo not drawn) | i
CCOC(=O)C1(c2ccccc2)CCCN(C)CC1 (stereo not drawn) | 7.9%
COc1ccc(N2C(=O)c3ccccc3S2(=O)=O)cc1 | i
N=c1n(CCO)c2ccccc2n1Cc1ccccc1F | -3.4%
CCC1CCCCN1S(=O)(=O)c1ccc2c(c1)CCCN2C(C)=O (stereo not drawn) | ?
CCOC(=O)CNC(=O)Nc1cc(C(=O)NCc2ccccc2OC)ccc1N1CCCC1 | -22.8%
CC1=C(C(=O)Nc2ccc(C)cc2C)C(c2ccc(Cl)cc2)n2nc(C(=O)OC(C)C)nc2N1 (stereo not drawn) | -19.9%
OC1CC(c2cc(N3CCC(c4nc5ccccc5[nH]4)CC3)ncn2)C1 (stereo not drawn) | i
Cc1c(NS(=O)(=O)c2ccccc2)cc(C(C)C)c(O)c1S(=O)(=O)c1ccc(Cl)cc1 | -9.3%
Cn1c(SCC(=O)N2CCC[C@H]2C(=O)Nc2ccccc2-c2ccccc2)nc2ccccc21 | -5.5%
CN(Cc1cccs1)c1ncnc2ccc(-c3ccc4cnn(C)c4c3)cc12 | i
CN(C)[C@@H]1CN(Cc2ccc(C#N)cc2)C[C@H]1CO | -4.9%
Cc1ccc(CNc2ncnc3ccc(-c4oc(-c5ccccc5)nc4C)cc23)o1 | i
CCC(C)(C)NC(=O)C(NS(=O)(=O)c1cccs1)c1ccccc1 (stereo not drawn) | -6.6%
O=C(NCC(c1cccnc1)N1CCN(Cc2ccccc2)CC1)C(=O)Nc1cccc(F)c1 (stereo not drawn) | 2.9%

Additional structures follow.
SMILES | nsP2pro primary
COc1ccc(-c2ccc3nc(-c4ccc(C)c(F)c4)oc3c2)c(OC)c1OC | 0.4%
CC(C)C1NC(=O)CNC(=O)C2CCCN2C(=O)C(Cc2c[nH]c3ccccc23)NC(=O)CNC(=O)C(C(O)c2ccc(O)cc2)NC(=O)CNC1=O (stereo not drawn) | -8.2%[10 µM]
COc1cc(CNc2ncnc3ccc(-c4c(C)noc4C)cc23)cc(OC)c1OC | ?
COc1ccc(Nc2cc(C(=O)NCCCN(C)C3CCCCC3)c3ccccc3n2)cc1 | 12.6%
NC1CCN(c2nc(-c3ccc(Br)cc3)cs2)CC1 | i
O=C(N[C@H](CO)[C@H](O)c1ccc([N+](=O)[O-])cc1)C(Cl)Cl | -4.8%&-1.2%
COc1ccc(OC)c(NC(=O)c2cc3c(=O)n4cccc(C)c4nc3n2C)c1 | -21.4%
Cc1nc(NC2CCCCC2)c2nc(-c3ccccc3)n(C(C)CN(C)C)c2n1 (stereo not drawn) | -6.1%
CC12CCC(O)CC1=CCC1C2CCC2(C)C(c3cccnc3)=CCC12 (stereo not drawn) | -16.8%[10 µM]
COc1cc([C@H]2OC[C@@H]3[C@@H](c4ccc(O[C@@H]5O[C@H](CO)[C@@H](O)[C@H](O)[C@H]5O)c(OC)c4)OC[C@]23O)ccc1O | ?
Cc1ccc(NC(=O)N2CCc3cc(S(=O)(=O)N4CCC(C)CC4)ccc32)cc1F | -19.5%
O=C(OCc1ccccc1O[C@@H]1O[C@H](CO)[C@@H](O)[C@H](O)[C@H]1O)C1(O)C=CCCC1O (stereo partly drawn) | 130.9%[activator][10 µM]
Cc1ccc(S(=O)(=O)Nc2cnccc2C(=O)NCc2ccccc2)cc1 | i
CNC(=O)[C@@H](C1CCCCC1)N1CCC[C@H]1C(=O)NCCN1CCOCC1 | 0.9%[39.2 µM]
CC(C)c1ccc(NC(=O)CN2C(=O)CCc3cc(S(=O)(=O)N4CCOCC4)ccc32)cc1 | -8.7%
O=C(Nc1ccc2nc(SCC(=O)N3CCCc4ccccc43)sc2c1)c1ccccc1 | -29.6%
COc1cccc(CNc2ccc([S+](=O)([O-])Nc3ccccc3)cc2)c1Cl | -1.9%
O=C(CCCCn1c(=O)c2ccccc2n(CC(=O)Nc2cccc(C(F)(F)F)c2)c1=O)NCc1ccc2c(c1)OCO2 | -21.9%
CCCCOc1ccc(CNC(=O)C2CCN(c3nnc(-n4cccc4CNc4ccc(C)cc4)s3)CC2)cc1 | ?
CCOC(=O)c1c(C)c(C(=O)NCCc2ccc(OC)cc2)c(C)n1CC | -20.5%
Cc1onc(-c2ccc(Br)cc2)c1C(=O)Nc1ccc(Br)cc1F | -11.2%
C#CCOc1cccc(-c2nnc3n2N=C(c2ccc(OC)c(OCC(C)=O)c2)CS3)c1 | i
COc1cc(C2Oc3c(OC)cc(/C=C/C(=O)OC4CC(O)(C(=O)O)CC(O)C4O)cc3C2CO)ccc1O (stereo not drawn) | -5.9%[10 µM]
CCc1ccc(NC(=O)C(CC)n2c(=O)c(C(F)(F)F)nc3ccccc32)cc1 (stereo not drawn) | -18.7%
CCOc1ccc(CCNC(=O)Cn2nc(CC)n3c(cc4ccccc43)c2=O)cc1 | -27.4%
Cc1cc(C)c2c(CC(=O)Nc3ccc(S(=O)(=O)Nc4nc(C)cc(C)n4)cc3)coc2c1 | -5.9%

This is a subset, so the mix of outcomes need not match the whole.
